Compound activity deposited in PubChem BioAssay by several laboratories.
ugtP null kill: growth inhibition of ugtP-null S. aureus, primary screen, RN4220 ugtP deletion, OD600; actives 0.54% (n = 330,000); growth inhibition, % (concentration not given with the values); AID 1259309, 2017; 16 h; some inactives read as strong as hits;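 active = z-score under -3 and OD600 up to 0.15 on both plates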;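 note: plate controls were untreated wells for no effect and antibiotic for full effect; wells of about 80 µL received 100 nL stock; the first replicate is given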
PrP UTR inh: inhibition of PrP 5' UTR reporter expression. inhibition, % (concentration not given with the values). cell-based PrP 5' UTR mRNA reporter, plate reader. AID 488862, 2010. actives 0.35% (n = 340,000);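 active = every replicate at 50% or more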;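 note: 0 = median of the neutral control wells; tested in H4 reporter cells; numbers are from one replicate; inactives centre near -14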
RN4220 kill: growth inhibition of S. aureus RN4220, primary screen, OD600; 16 h; inhibition, % (concentration not given with the values); actives 0.33% (n = 330,000); AID 1259311, 2017;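 active = z-score of -3 or lower and OD600 up to 0.18 on both plates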;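 note: plate controls were untreated cells for no effect and reference antibiotic for full effect; stock transfer was 100 nL into about 80 µL; one replicate is shown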
BJeLR viability: MLPCN primary cell-based screen for lethality selective to Ras in HRASV12 cells; BJeLR (HRASV12) viability, CellTiter-Glo ATP luminescence, 48 h; reference of the scale not given here; inhibition, % (test concentration not listed); actives 0.17% (n = 300,000); AID 1554, 2009;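 active = replicate mean above 50%; inconclusive = above 50% but judged a plate artefact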;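 note: 50 nL library stock added to about 25 µL; numbers are from one replicate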
Autofluor counter: flagged as autofluorescent in microsphere protease counterscreen | fluorescence intensity (concentration not given with the values) | actives 3.1% (n = 360,000) | compound autofluorescence counterscreen, microsphere flow cytometry; hits give high values | AID 624483;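 active = at least 3 SD above the mean of all compounds, about 16000 in these data; inconclusive = too few beads counted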;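 note: 100 nL of 1 mM stock went into each well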
Mtb hypoxia inh: PubChem AID 1159583; M. tuberculosis hypoxia-regulated fluorescent reporter, fluorescence; actives 0.1% (n = 300,000); fluorescence inhibition, % (concentration not given with the values);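 active = 35 to 45% if threefold the growth effect, above 45% if 1.5-fold the growth effect; inactive = the rest, general growth blockers included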;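 note: wells of about 50 µL received 100 nL stock; 0% = vehicle wells and 100% = reference inhibitor wells; whole bacteria with a GFP reporter of the hypoxia response; strong numbers were not always called active; many hits fall short of the cut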
Mtb hypoxia inh growth: also measured in Mtb hypoxia inh; calls as there; growth inhibition, %; measured here: M. tuberculosis growth (absorbance);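 0% = vehicle and 100% = reference antibiotic; read after six days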
* marks the source's active call; other numbers are inactive results; u = inconclusive; x = not tested or not shown; & = joins results of further samples.

SMILES	ugtP null kill	PrP UTR inh	RN4220 kill	BJeLR viability	Autofluor counter	Mtb hypoxia inh	Mtb hypoxia inh growth
O=C(CN(C(=O)c1csnn1)c1cccc2c1CCCC2)NC1CCCC1	1	-12	4.9	11	3437	6	6
CCN1CCN(c2cc(C)c3cc(NC(=O)c4cccs4)ccc3n2)CC1	29	x	5.3	-7	3363	-3	-1
COc1ccc(/C=C/C(=O)O)cc1S(=O)(=O)N1CCc2ccccc21	3	-21	4.5	7	3536	5	-5
Oc1ccc2ccccc2c1/C=N/c1nc2c(s1)CCCC2	x	-13	x	2	2788	x	x
COC(=O)c1ccc(C2C(C(=O)OCC(C)C)=C(C)N=C3SCCC(=O)N32)cc1 (stereo not given)	12	0	-2.8	-14	22462*	-6	2
O=C(NC1CCCCCC1)c1ccc(CS(=O)Cc2cccc(Cl)c2)o1 (stereo not given)	-4	-15	3.8	7	5374	4	5
COc1ccc(N(CC(=O)N/N=C/c2ccc(-c3ccc([N+](=O)[O-])cc3)o2)S(=O)(=O)c2ccc(C)cc2)cc1	x	-10	x	3	8056	x	x
CC1CC(C)CN(C(=O)c2cc3cc(Br)cc(Br)c3o2)C1 (stereo not given)	-4	-34	-5.5	6	5478	10	10
CCN(c1ccccc1)S(=O)(=O)c1ccc(C(=O)OC(C)C(=O)NCCC2=CCCCC2)cc1 (stereo not given)	2	-11	2.0	9	2147	3	4
COc1cc2cnc(-c3ccccc3)c(-c3ccc(C#N)cc3)c2cc1OC	-4	-12	-9.9	x	3535	11	6
COc1ccc(C(=O)CCN2CCc3cc(OC)c(OC)cc3C2)cc1	0	-17	-1.0	4	4451	5	4
COc1ccc(OC(=O)c2ccncc2)cc1	-4	-15	-1.6	-7	9004	-1	10
COc1ccc2c(CC(=O)NNC(=O)c3cccs3)coc2c1	5	-24	8.2	x	u	7	-4
O=C(Nc1cc([N+](=O)[O-])ccc1Cl)C1CC1	8	-3	4.4	5	2368	9	6
CCCC1(c2ccccc2)NC(=O)NC1=O (stereo not given)	2	-5	6.5	-11	5441	4	3
N#Cc1c(NCCN)nc(-c2ccccc2)c2c1CCCC2	-7	-10	0.1	-1	2204	x	x
CC(=O)CSc1nnc(-c2ccco2)n1-c1ccccc1	2	-1	-0.8	4	3707	10	0
CC(=O)N(C)c1ccc(NC(=O)Nc2ccccc2C)cc1	13	-28	-0.2	5	2449	5	12
CCOC(=O)c1[nH]c(CSc2nnnn2-c2ccccc2C)c(C(=O)OCC)c1C	2	-9	5.7	x	5460	x	x
FC(F)(F)COc1ccc(-c2nnc(SCc3c(Cl)cccc3Cl)o2)cn1	27	-17	5.5	4	6220	6	4
O=C(c1ccco1)N1CCN(C2CC(=O)N(c3ccccc3)C2=O)CC1 (stereo not given)	1	-17	2.5	-2	5895	7	17
O=S(=O)(c1ccccc1F)N1CCC(Oc2ccc(-n3cnnn3)cc2)CC1	3	-12	2.5	6	5036	5	-4
CCOC(=O)c1ccccc1NC(=O)COc1coc(CN2CCc3ccccc32)cc1=O	-6	-12	5.1	5	4857	13	7
NC(=O)C1(N2CCCCC2)CCN(c2ccc3nnc(-c4ccccc4)n3n2)CC1	18	10	3.6	6	4731	-3	8
Cc1cc(CNC(=O)COC(=O)Cn2[nH]c(=O)c3ccccc3c2=O)cc(C)c1O	10	-12	5.5	6	3906	3	1
(list continues)
SMILES	ugtP null kill	PrP UTR inh	RN4220 kill	BJeLR viability	Autofluor counter	Mtb hypoxia inh	Mtb hypoxia inh growth
CC1Cc2ccccc2N1C(=O)CN1CCN(Cc2ccccc2)CC1 (stereo not given)	-1	-28	0.9	-3	3943	-11	6
O=C(COC(=O)CN1C(=O)NC2(CCCC2)C1=O)Nc1c(Cl)cccc1C(F)(F)F	3	-10	4.5	0	x	11	14
COc1ccc(CCNC(=O)CCS(=O)(=O)c2ccc3c(c2)NC(=O)C(C)S3)cc1OC (stereo not given)	7	-22	-1.5	-1	5510	3	17
CC(=NNC(=O)c1nn(C)cc1Br)c1cccc(NC(=O)c2ccncc2)c1	12	x	1.4	x	x	-2	4
CN1CCN(C(=S)c2cn(Cc3ccc(Br)cc3)c3ccccc23)CC1	-21	8	2.3	x	3379	-6	1
O=C(CSc1nnc(-c2ccncc2)n1Cc1ccco1)OC1CCCCC1	-5	-32	0.3	8	11107	2	8
CCOc1ccc2[nH]c(=O)c(CN(Cc3ccccc3OC)C(=O)c3ccccc3)cc2c1	-2	-29	9.5	0	7787	5	4
Cc1ccc(N=C2SC(C(=O)NCCc3ccccc3)CC(=O)N2C)cc1C (stereo not given)	x	-12	x	-8	4145	x	x
O=C(O)C1=CC(C2CC2)CC(OCCCCO)O1 (stereo not given)	3&0	x	7.4&5.7	x	x	19&7	5&10
NC(Cc1ccc(O)cc1)c1nnc(C(CCC(=O)O)NC(=O)C2CCNCC2)o1 (stereo not given)	-1	x	5.5	x	x	15	5
Cc1ccc(CCNC(=O)NC(C)(C)C)cc1	7	-45	1.0	3	2906	x	x
COc1ccc(C(=O)Nc2ccc(-c3nnn(CC(=O)N4CCN(C(=O)c5ccco5)CC4)n3)cc2)cc1	5	-29	-1.6	-1	2631	3	0
Cc1ccc(-n2c(CNc3cccc(Cl)c3)n[nH]c2=S)cc1	-7	3	7.0	8	2391	2	1
COc1ccc(CNC(=O)COC(=O)/C=C/c2cccc(Br)c2)cc1OC	4	-32	1.1	15	4012	9	6
CCC(C)(C)n1nnnc1CN(Cc1cc2cc(OC)c(OC)cc2[nH]c1=O)C1CCCC1	-2	0	-11	1	3583	8	1
CN1C(=O)C2(c3ccccc31)N(C)CC(c1ccccn1)C21SC(=S)N(Cc2ccco2)C1=O (stereo not given)	-9	-8	5.9	-7	3461	4	4
Cc1oc(C(C)(C)C)cc1C(=O)Nc1ccc(C(=O)O)cc1	4	-22	3.6	-3	3231	5	9
Cc1ccc(C)c(OCCn2nnc3ccccc32)c1	4	-28	6.9	-25	3963	7	7
Clc1ccc(-c2noc(CCCc3ccccc3)n2)cc1	59	-33	2.9	3	4379	18	4
O=C1C[C@H](NC(=O)OCc2ccccc2)CO1	0	-2	2.1	x	u	7	3
CCOC(=O)c1sc(=S)n(Cc2ccccc2)c1N	-12	-6	-3.9	-2	3094	x	x
COc1ccc(/C=C/C(=O)N2CCN(c3ccccn3)CC2)cc1OC	-2	-7	2.2	4	3723	0	6
Cc1cccc(N2CCN(C(=O)CC(NC(=O)c3ccccc3Cl)c3ccccc3)CC2)c1C (stereo not given)	-20	-11	-3.9	-6	2112	-4	1
Cc1cc(C)nc(N2CCC(C(=O)NCc3ccccc3)CC2)n1	5	-27	3.2	-5	9233	13	11
O=C(Nc1nnc(SCc2ccc(Cl)cc2)s1)C1CCCO1 (stereo not given)	4	-17	9.6	-3	2394	-7	1
More results follow:
SMILES	ugtP null kill	PrP UTR inh	RN4220 kill	BJeLR viability	Autofluor counter	Mtb hypoxia inh	Mtb hypoxia inh growth
COCCNC(=O)CSc1c2c(nc3ccc(Cl)cc13)CCCC2	-5	-28	-5.8	3	2530	9	16
O=C(/C=C/c1cc([N+](=O)[O-])ccc1OC(F)F)Nc1ccc(OC(F)F)cc1	-12	-33	-3.2	-3	4186	-11	-3
Cc1cc(C(=O)CN2C(=O)C(=O)N(Cc3ccccc3)C2=O)c(C)n1Cc1ccc(F)cc1	-2	-13	-0.4	x	9181	9	0
Cc1nc(C)n(CC(=O)N2CCCC(C(=O)c3ccc(Cl)cc3C)C2)n1 (stereo not given)	8	-17	1.9	9	3632	0	11
Cc1cc2c3c([nH]c2cc1S(=O)(=O)N1CCC2(CC1)OCCO2)CCCC3=O	3	-15	2.8	23	5637	12	-5
Cn1c2c(c(=O)n(C)c1=O)C(NS(=O)(=O)c1ccc(Cl)cc1)(C(F)(F)F)C(=O)N2 (stereo not given)	-4	-7	3.1	-1	2493	-2	1
CCOC(=O)c1c(NC(=O)CSc2nnc(CNc3ccc(F)cc3)o2)sc(C(C)=O)c1C	-27	-28	-2.1	-9	8627	5	9
COc1cccc(C=Nn2c(-c3cc(C)[nH]n3)n[nH]c2=S)c1OC	2	x	2.1	x	x	3	8
COc1ccc(S(=O)(=O)CCC(=O)NCc2ccc(C)o2)cc1	-5	-9	1.9	-12	6061	x	x
Cc1ccc(S(=O)(=O)Nc2ccc3cn[nH]c3c2)c(C)c1	-2	-18	-0.5	x	x	12	12
CCc1nc2ccc(C(=O)NCCCN3CCN(c4ccc(F)cc4)CC3)cc2nc1CC	1	2	-1.5	2	3162	7	3
CCOC(=O)N1CCc2c(sc3ncn(Cc4ccc(F)cc4)c(=O)c23)C1	-2	-9	-2.1	8	4501	4	3
O=C(NCc1ccc(Cl)cc1)c1ccc2c(=O)n(CC3CCCO3)c(=S)[nH]c2c1 (stereo not given)	51	-9	-6.8	6	5200	-6	2
CCOc1ccc(CCNC(=O)c2ccc(S(=O)(=O)N3CCCC3)cc2)cc1OCC	5	-3	3.2	1	5047	-10	3
Cc1ccc(C(C(=O)NC2CCCC2)N(Cc2ccc(F)cc2)C(=O)c2snc(C(N)=O)c2N)o1 (stereo not given)	10	-19	3.8	8	3724	6	9
Cc1ccccc1CN(C)C(=O)c1ccc2ccccc2n1	3	-22	9.1	-9	3683	16	14
CCCCOC(=O)c1ccc(Nc2ncnc3nc[nH]c23)cc1	-5	-29	4.5	-1	4256	-4	-3
O=C1CCCN2N=C(SCC(=O)Nc3cccc(C(F)(F)F)c3)SC2=N1	0	-4	8.5	-5	5920	-1	-2
O=C(CN1CCN(S(=O)(=O)N2CCCCC2)CC1)Nc1ccc(Cl)c(Cl)c1	-4	-6	1.9	-5	4254	-4	-1
Cc1c(Cl)c([N+](=O)[O-])nn1CCCC(=O)N1CCN(c2ccccc2)CC1	11	-30	0.5	4	7868	15	3
N#CC1(Cc2ccccc2Cl)c2ccccc2C=CN1C(=O)c1ccccc1 (stereo not given)	25	-15	14	-2	3428	-1	2
NC(=O)CSc1nnc([C@@H](N)Cc2c[nH]c3ccccc23)o1	-3	-21	7.0	2	10169	4	8
COc1ccc(NC(=S)Nc2ccccc2SC)c(OC)c1	x	-30	x	4	4713	x	x
CC[C@]12c3[nH]c4cc(-c5ccco5)ccc4c3CCN1C(=O)[C@@H](CC(=O)NC/C=C(\C)CCC=C(C)C)C[C@@H]2C(=O)N1CCN(C(=O)c2ccco2)CC1	-4	-7	-4.4	x	3544	-2	1
CCCOc1ccc(C=NNC(=O)CCc2n[nH]c(=O)[nH]c2=O)cc1OC	7	x	7.2	x	x	-4	4

Another view of some results above:
> CCOC(=O)c1c(NC(=O)CSc2nnc(CNc3ccc(F)cc3)o2)sc(C(C)=O)c1C
  ugtP null kill = -27
  PrP UTR inh = -28
  RN4220 kill = -2.1
  BJeLR viability = -9
  Autofluor counter = 8627
  Mtb hypoxia inh = 5
  Mtb hypoxia inh growth = 9
> COc1cccc(C=Nn2c(-c3cc(C)[nH]n3)n[nH]c2=S)c1OC
  ugtP null kill = 2
  PrP UTR inh = x
  RN4220 kill = 2.1
  BJeLR viability = x
  Autofluor counter = x
  Mtb hypoxia inh = 3
  Mtb hypoxia inh growth = 8
> COc1ccc(S(=O)(=O)CCC(=O)NCc2ccc(C)o2)cc1
  ugtP null kill = -5
  PrP UTR inh = -9
  RN4220 kill = 1.9
  BJeLR viability = -12
  Autofluor counter = 6061
  Mtb hypoxia inh = x
  Mtb hypoxia inh growth = x
> Cc1ccc(S(=O)(=O)Nc2ccc3cn[nH]c3c2)c(C)c1
  ugtP null kill = -2
  PrP UTR inh = -18
  RN4220 kill = -0.5
  BJeLR viability = x
  Autofluor counter = x
  Mtb hypoxia inh = 12
  Mtb hypoxia inh growth = 12

Next part:
SMILES	ugtP null kill	PrP UTR inh	RN4220 kill	BJeLR viability	Autofluor counter	Mtb hypoxia inh	Mtb hypoxia inh growth
O=C(N/N=C\c1ccc(Cl)s1)c1cccs1	x	-57	x	4	2965	x	x
CCN1CCc2c(sc(NC(=O)c3ccc(S(=O)(=O)N4CC(C)OC(C)C4)cc3)c2C(N)=O)C1 (stereo not given)	x	0	x	1	5711	x	x
O=C(O)CCCC(=O)Nc1ccccc1Oc1ccccc1	3	-20	5.3	3	5960	6	12
CCCc1c(C(=O)NN=Cc2ccccc2C(F)(F)F)nnn1-c1nonc1N	8	x	8.6	x	x	2	5
CC(C)=CCN1CCN(Cc2ccc(Sc3nncn3C)o2)CC1CCO (stereo not given)	7	-2	2.4	-6	3303	12	1
CCc1ccc(CN2C(=O)CCC2(C)C(=O)NC2CCCC2)cc1 (stereo not given)	x	-23	x	-12	15084	x	x
Cc1cc(NC(=O)CC2(CC(=O)O)CCCC2)n(C)n1	5	-25	2.6	-9	4374	5	-4
